Calb FLC – affects C. albicans growth with fluconazole; growth inhibition, % (test concentration not listed); 0.57% of 300,000 active; C. albicans CaCi-2 (fluconazole-resistant clinical isolate) + fluconazole, Alamar Blue growth, 48 h;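 active = most replicates above 75%; inconclusive = exactly half above 75%; inactive = most below 75%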;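 note: all wells also contain fluconazole at 8 µg/ml as a sub-toxic cotreatment; 0% = median of DMSO wells and 100% = median of geldanamycin control wells; wells of about 8 µL received 7.5 nL stock; the first replicate is given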
ALR inh – human ALR oxidase inhibition via reduced H2O2. P55789. purified ALR, DTT oxidation, H2O2 HRP-luminol luminescence. inhibition, % (no concentration beside the values). 3.8% of 290,000 active;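 active = mean and each replicate at 75% or more; inconclusive = only one of the two met; inactive = neither met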;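 note: stock transfer was 7.5 nL into about 7.5 µL; 0% = neutral wells and 100% = wells with inactivated enzyme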
Target sequence (P55789 whole entry, looked up): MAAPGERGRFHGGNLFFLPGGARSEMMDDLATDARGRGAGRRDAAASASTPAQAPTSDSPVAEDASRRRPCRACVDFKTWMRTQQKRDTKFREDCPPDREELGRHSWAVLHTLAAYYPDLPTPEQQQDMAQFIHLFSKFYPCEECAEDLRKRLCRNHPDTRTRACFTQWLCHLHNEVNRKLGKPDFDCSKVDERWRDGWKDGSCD
LANA-H2A inh – blocks KSHV LANA binding to histone H2A/H2B. cell-free LANA-H2A/H2B peptide, fluorescence polarization. Q9QR71. 0.6% of 320,000 active. inhibition, % (test concentration not listed). AID 2629; in the data active = inhibition mostly above about 10%, no sharp cut-off; inactive = mostly below about 6.7%;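 note: stock transfer was 7.5 nL into about 10 µL; 0% = median of vehicle wells and 100% = median of positive control wells; one replicate is shown; the record names a cut of 25% in any replicate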
B2AR ag – activates human beta-2 adrenergic receptor causing internalization. AID 504454. response, % (test concentration not listed). 0.43% of 340,000 active. Am2.2-beta2AR cells, FAP receptor internalization, flow cytometry; reference of the scale not given here. P07550;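 active = response above a set limit, near 3 SD of response in nonfluorescent compounds, cut at about 42% in these data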;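 note: stock transfer was 100 nL into about 11 µL; a reference agonist was the positive control; negative values mostly stem from fluorescent compounds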
Target sequence (P07550 whole entry, looked up): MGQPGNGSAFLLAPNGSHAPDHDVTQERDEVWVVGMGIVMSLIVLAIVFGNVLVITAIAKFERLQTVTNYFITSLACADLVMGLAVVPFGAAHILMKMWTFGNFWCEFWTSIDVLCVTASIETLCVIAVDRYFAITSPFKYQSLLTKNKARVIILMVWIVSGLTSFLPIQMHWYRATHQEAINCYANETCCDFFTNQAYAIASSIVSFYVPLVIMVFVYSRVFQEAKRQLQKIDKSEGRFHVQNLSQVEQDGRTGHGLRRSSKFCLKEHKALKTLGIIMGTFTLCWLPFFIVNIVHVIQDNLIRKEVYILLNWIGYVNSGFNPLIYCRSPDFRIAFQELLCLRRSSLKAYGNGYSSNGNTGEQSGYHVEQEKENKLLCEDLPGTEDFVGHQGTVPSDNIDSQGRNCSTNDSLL
RanGTP-Impb inh – inhibitors of RanGTP-importin-beta interaction, primary screen, biochemical, FRET, CFP-Ran, YFP-importin-beta, homogeneous; cell-free CFP-Ran/YFP-importin-beta FRET ratio; 1.1% of 300,000 active; AID 2216; inhibition, % (no concentration beside the values);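 active = most replicates above 15%; inconclusive = exactly half above 15%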;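 note: 0% = DMSO wells and 100% = Ran loaded with GDP instead of GTP; wells of about 40 µL received 100 nL stock; the first replicate is given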
HNF4A DNA FP – change in binding of human HNF4 alpha to DNA; P41235; HNF4a-FITC DNA binding, fluorescence polarization, 1 h; activity change, % at 10 µM; 0.3% of 360,000 active; AID 1224865; in the data active = activity change above about 30%, passing the limit was not always enough;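 note: controls were the assay level and a saturating level of protein; the project sought stronger binding though the title names inhibitors; some compounds called inactive have numbers as strong as hits; positive values seem to mean higher polarization but the record does not say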
Target sequence (P41235 whole entry, looked up): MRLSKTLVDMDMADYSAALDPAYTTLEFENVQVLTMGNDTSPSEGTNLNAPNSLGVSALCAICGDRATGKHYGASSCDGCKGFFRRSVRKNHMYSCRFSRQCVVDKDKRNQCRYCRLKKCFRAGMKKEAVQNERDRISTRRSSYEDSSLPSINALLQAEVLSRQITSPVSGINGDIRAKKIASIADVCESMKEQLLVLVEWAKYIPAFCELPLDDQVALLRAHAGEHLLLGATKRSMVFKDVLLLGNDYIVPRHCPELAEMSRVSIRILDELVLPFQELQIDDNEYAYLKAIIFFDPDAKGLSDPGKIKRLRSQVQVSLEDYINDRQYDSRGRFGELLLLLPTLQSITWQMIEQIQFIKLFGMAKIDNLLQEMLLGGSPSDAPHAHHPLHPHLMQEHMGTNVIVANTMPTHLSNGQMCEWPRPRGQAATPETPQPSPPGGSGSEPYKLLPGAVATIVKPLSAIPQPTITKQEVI
Vif TR-FRET – inhibitors of Vif binding to APOBEC3G peptide, primary screen, biochemical, TR-FRET, GST-Vif 1-94, biotin-A3G peptide, dose response retest (AID 1117319) | TR-FRET GST-Vif / biotin-A3G peptide binding; higher % means a stronger effect; test concentration not given here; strong numbers were not always called active | inhibition, %; hits with a dose series show IC50 in µM | 0.57% of 260,000 active;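 active = above the screen mean plus three standard deviations and confirmed in dose response; inconclusive = results disagree or hit not tested in dose response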;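 note: Vif residues 1-94 fused to GST binding biotinylated APOBEC3G peptide 110-148; 0% = full assay without inhibitor and 100% = GST in place of GST-Vif; retest series ran down from 100 µM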
An asterisk follows results filed as active; ? = inconclusive; . = not tested or not shown; & = joins results of further samples.

no. | structure | Calb FLC | HNF4A DNA FP | ALR inh | RanGTP-Impb inh | Vif TR-FRET | B2AR ag | LANA-H2A inh
1 | O=C(NNC(=O)C1CCC(C(=O)NNC(=O)c2cccs2)CC1)c1cccs1 (centres undefined) | -4.1 | -1.0 | -6.5 | 1.7 | 6.6% | -5.7 | -0.6
2 | O=C1c2ccccc2NC(c2ccccn2)N1NS(=O)(=O)c1ccccc1 (centres undefined) | 9.1 | -4.2 | -1.9 | -3.6 | . | -3.1 | 0.5
3 | COc1ccccc1C(=O)NC(=S)Nc1ccc(N2CCOCC2)c(Cl)c1 | -3.4 | -0.6 | -10.5 | 5.0 | . | -4.1 | 10.1
4 | Cc1ccccc1-n1c(SCC(=O)O)nc2sc3c(c2c1=O)CCCC3 | 2.2 | -0.7 | 3.1 | -2.2 | 0.4% | 8.5 | 3.8
5 | O=C1CC(NCc2ccccc2F)C(=O)N1c1ccccc1 (centres undefined) | -18.4 | 2.5 | 2.9 | -3.0 | -5.5% | 9.9 | 0.5
6 | CN1C(=O)C(O)(CC(=O)c2ccncc2)c2ccccc21 (centres undefined) | -6.3 | 0.7 | -25.8 | -2.4 | ? | 25.1 | -2.1
7 | CCO[C@H]1OC(C(=O)NCc2nc3ccccc3[nH]2)=C[C@@H](C)[C@@H]1CCCO | -9.0 | 3.9 | -3.9 | 3.3 | . | 3.3 | -0.6
8 | Cc1ccc(N=CC=C2OC(C)(C)C(C)(C)O2)c(C)c1 | 0.4 | 0.8 | -19.5 | -3.1 | 14.5% | 2.5 | 2.2
9 | COCCN(CCOC)c1ncnc2c1cnn2-c1ccc(Cl)cc1 | 1.8 | 4.6 | -3.4 | 3.2 | 3.1% | -7.6 | 4.2
10 | CC(C)(C)OC(=O)N1CCC2(CC1)Oc1ccc(Cl)cc1C(=O)C21CC(c2ccc(Cl)cc2)=NO1 (centres undefined) | 0.0 | -2.5 | -2.4 | 3.3 | . | 2.4 | -0.2
11 | O=C(OCC(=O)c1ccccc1)C1=NN(c2ccccc2)C(=O)CC1 | . | 0.9 | -10.5 | . | . | -2.7 | 1.9
12 | CCOc1ccc(OCCC(=O)OCC(=O)NC(C)c2ccccc2)cc1 (centres undefined) | 6.0 | -1.3 | -7.5 | 1.2 | 2.5% | -10.2 | 1.3
13 | Cn1c(SCc2nc(-c3ccccc3)no2)nnc1-c1ccco1 | -6.3 | -5.1 | 8.0 | 0.9 | -1.2% | -18.6 | -0.4
14 | COCCCN=CC1=C(O)CC(C)(C)CC1=O | 27.9 | 0.3 | -7.4 | -0.9 | 2.9% | -4.0 | -0.4
15 | CCCn1c(=O)c(C(=O)NCc2ccccc2)c(O)c2ccccc21 | -21.0 | 2.6 | -1.9 | -1.4 | ? | -2.9 | -0.6
16 | COC(C(=O)Nc1ccc(S(=O)(=O)Nc2ccc(F)cc2)cc1)c1ccccc1 (centres undefined) | 13.4 | -0.6 | . | 1.3 | . | -1.7 | -1.2
17 | O=C(NCc1n[nH]c(=S)n1-c1ccc(F)cc1)c1ccc(S(=O)(=O)N2CCCCC2)cc1 | -9.5 | 0.6 | 25.0 | 0.2 | . | 1.9 | -2.1
18 | N#C[C@@H]1N(Cc2ccccc2)C(=O)[C@H]2CC3C=CC21O3 (some centres undefined) | -9.7 | 1.1 | 3.5 | 4.9 | . | 2.8 | 3.2
19 | CCCCCSc1nc2c(c(=O)[nH]c(=O)n2C)n1C(C)C | 10.7 | -1.1 | . | 9.2 | -0.6% | 0.5 | -5.9
20 | CC1CN(C(=O)COC(=O)c2ccc(F)cc2Cl)CC(C)O1 (centres undefined) | 9.6 | -2.9 | -3.1 | 5.9 | . | 7.6 | 0.3
21 | CCOc1ccc(C2Nc3cccc4cccc(c34)N2)cc1OC | 20.5 | -2.1 | -17.7 | 5.9 | 22.8% | 16.7 | 4.6
22 | COC(=O)Cn1c(=O)c2c(nc3n2CCCN3CCc2ccccc2)n(C)c1=O | 2.7 | -1.1 | . | 25.3* | . | 3.9 | 1.1
23 | O=C(Nc1ccccc1)N1CCCN(c2ccc(C(F)(F)F)cn2)CC1 | 10.9 | -1.4 | -2.7 | -0.6 | 23.8% | 6.9 | -1.7
24 | Cc1ccc2cc3cc(C(=O)N4CCCCCC4)oc3nc2c1 | -0.5 | -0.3 | 12.8 | 2.0 | -2.7% | 15.5 | 2.5
25 | COc1ccc(S(=O)(=O)N2CCCCC2)cc1NCC(=O)Nc1ccc(C)cc1 | 23.0 | 3.6 | -2.0 | 1.2 | 16.4% | -5.2 | 2.9
26 | Cc1ccc(S(=O)(=O)NNC(=S)Nc2ccc(Cl)cc2)cc1 | -7.7 | -3.1 | ? | 2.8 | -9.8% | 1.4 | -2.3
27 | CN1CC=C2C(C#N)=C(N)C(C#N)(C#N)C(Cc3ccccc3)C2C1 (centres undefined) | 0.7 | -21.8 | -50.2 | 99.6* | 19.1% | -1.3 | 0.8
28 | Cc1oc(-c2ccccc2F)nc1CS(=O)(=O)CC(=O)NC1CCCC(C)C1C (centres undefined) | 3.6 | 4.0 | 0.7 | 2.9 | . | -13.6 | 1.6
29 | CCCN(CC(=O)Nc1ccccc1OC)C(=O)c1ccncc1 | -1.6 | 1.5 | . | 2.6 | . | 7.6 | -2.9
30 | Cc1cccc(NC(=O)Nc2ccc(C#N)cc2)n1 | 3.5 | 2.0 | -1.2 | ? | -1.4% | 1.6 | 2.2
31 | CC(C)c1ccc(/C=C/C(=O)n2nnc3ccccc32)cc1 | -5.1 | -4.3 | 63.7 | -0.8 | -0.9% | 15.8 | -4.9
32 | O=C(Nc1cccc(S(=O)(=O)N2CCOCC2)c1)c1cccc(S(=O)(=O)N2CCCC2)c1 | . | -5.2 | . | . | -4.3% | -6.4 | .
33 | Cn1cc(Br)c(C(=O)N/N=C/c2cccc(OC3CSC3)c2)n1 | 5.1 | 1.3 | -3.0 | 6.2 | 12.7% | -6.9 | 7.3
34 | CC(C)CN(C(=O)CSc1nnnn1-c1ccccc1)c1c(N)n(CC(C)C)c(=O)[nH]c1=O | 12.0 | -5.4 | -4.4 | 5.9 | -12.0% | -9.3 | 2.8
35 | Cc1nn(-c2ccccc2)c2sc(C(=O)N3CCc4ccccc4C3)cc12 | 1.3 | 2.6 | . | -2.0 | 36.3%&0.9% | -8.3 | .
36 | O=C(C1CCCC1)N(c1ccccc1)C1C=CS(=O)(=O)C1 (centres undefined) | -16.5 | 4.4 | -7.3 | -4.1 | 24.6% | -7.8 | 1.2
37 | ClC(/C=N/n1cnnc1)=C/c1ccccc1 | 14.9 | 3.4 | -3.4 | 7.2 | 1.9% | 0.3 | -0.2
38 | O=[N+]([O-])c1cccc(/C=C/C=N/Nc2nc(N3CCCCC3)nc(N3CCCCC3)n2)c1 | 18.4 | -5.0 | 7.6 | 0.2 | 10.1% | 8.0 | 6.9
39 | COc1ccc(CCC(=O)NCCCNC(=O)CCc2ccc(OC)cc2)cc1 | 6.9 | -1.2 | 3.9 | 2.8 | . | -5.2 | -2.5
40 | COC(=O)c1sc(S(=O)(=O)N2CCCCC2C(=O)O)c(C(=O)OC)c1C (centres undefined) | -6.3 | -4.4 | -2.2 | -1.6 | 3.8% | 13.4 | 1.0
41 | COc1cccc(NC(=O)C(C)OC(=O)c2n[nH]c3ccccc23)c1 (centres undefined) | . | -1.5 | . | . | . | -0.6 | 0.8
42 | CCCC(=O)Nc1ccc(NC(=O)c2cc3ccccc3o2)c(OC)c1 | 7.7 | -1.4 | -2.7 | 0.7 | . | -2.0 | 1.7
43 | C/C(Cn1nnc([N+](=O)[O-])n1)=N\NC(=O)c1ccccc1O | 0.6 | -2.1 | -29.9 | -3.6 | 7.1% | 8.5 | -3.3
44 | COc1ccc2c(CC(=O)NCc3cccs3)coc2c1 | -0.7 | -0.1 | -7.3 | -3.9 | 16.4% | -2.2 | 5.7
45 | COc1ccc(C/C(C)=N/NC(=S)Nc2ccc(C)c(C)c2)cc1 | -11.4 | -0.8 | ? | 2.7 | 10.7% | 10.4 | -1.0
46 | CNCc1ccccc1Sc1cc(O)ccc1O | . | 3.4 | 81.8* | . | 3.46µM* | 67.8* | -0.2
47 | CCOc1cc(C(=O)Nc2c(C)ccc3nsnc23)cc(OCC)c1OCC | 28.7 | -2.4 | . | 0.9 | . | -3.0 | 3.8
48 | COc1ccc(NC(=O)C(Sc2ccccc2)c2ccccc2)c(OC)c1 (centres undefined) | 22.7 | 6.3 | -9.3 | -4.5 | . | 10.3 | -0.5
49 | O=C(Nc1ccccn1)C1COc2ccccc2O1 (centres undefined) | 6.0 | 2.9 | . | 1.4 | -6.2% | 4.0 | -0.3
50 | COc1ccc(-c2nnc3n2CCCCC3)cc1 | -7.7 | 0.6 | . | -3.1 | . | 2.8 | 0.2
51 | CC(=O)C12CC(C)=C(C)CC1CC1C3CCC4=CC(=O)CCC4(C)C3CCC12C (centres undefined) | -2.2 | -2.9 | -1.2 | 1.0 | . | -2.0 | 1.0
52 | Cc1cc(C)nc(OC(=O)c2ccc(Cl)cc2Cl)n1 | -4.0 | . | 97.7* | -3.5 | 3.2% | . | 2.1
53 | Cc1cccc(C)c1OCc1cc(C(=O)NCc2ccc(Cl)s2)no1 | 25.3 | 1.7 | -2.6 | 3.3 | . | -3.0 | -3.2
54 | CCCCC(C(=O)NC1CCCC1)N(Cc1ccco1)C(=O)Cn1nnc(-c2ccc(F)cc2)n1 (centres undefined) | 21.5 | 2.4 | -0.9 | 2.9 | -1.9% | -8.5 | 1.5
55 | CCC(=O)N(Cc1cc(=O)[nH]c2ccccc12)c1cccc(C)c1 | . | 3.0 | 11.1 | . | 8.3% | -0.2 | -11.1
56 | CC(=O)NC12CC3CC(C1)CC(C(=O)Nc1nc4c(C)cccc4s1)(C3)C2 | -21.9 | -1.0 | -5.0 | 0.2 | . | 11.8 | -7.1

(continued)
no. | structure | Calb FLC | HNF4A DNA FP | ALR inh | RanGTP-Impb inh | Vif TR-FRET | B2AR ag | LANA-H2A inh
57 | Cc1cccc(N2CCN(C(=O)c3ccccc3SCC(=O)N3CCCC3)CC2)c1C | . | 1.3 | 1.9 | . | -13.3% | -0.2 | 3.3
58 | CCN1C(=O)[C@H]2[C@@H](c3ccc(C)cc3)N3C(=O)N(c4cccc(Br)c4)C(=O)[C@@]3(CC(C)C)[C@H]2C1=O | 2.7 | 2.7 | -4.1 | -1.4 | . | 5.3 | 0.1
59 | COc1ccc(OC)c(NC(=O)CSC2=NN3CCCC(=O)N=C3S2)c1 | -6.6 | 0.6 | . | 8.7 | . | 3.2 | 18.5
60 | CCOC(=O)CN1CCC(c2cc(-c3ccc(Cl)cc3)n[nH]2)CC1 | -7.5 | 3.2 | -2.7 | 1.0 | 8.9% | 22.4 | -3.7
61 | CC(Sc1nnc(-c2cccnc2)n1-c1ccccc1F)C(=O)N1CCCc2ccccc21 (centres undefined) | 4.3 | . | -8.4 | 1.3 | 5.0% | . | 3.5
62 | CC(Cc1ccccc1)N(C)C(=O)CN1C(=O)c2ccccc2C1=O (centres undefined) | . | 0.7 | . | . | -0.8% | 9.3 | .
63 | CN(CC(=O)Nc1ccccc1C(=O)NC1CC1)Cc1ccc(Cl)s1 | . | 2.0 | -3.1 | . | 1.2% | -7.2 | -2.3

Single records, as listed above. Values in the order: Calb FLC, HNF4A DNA FP, ALR inh, RanGTP-Impb inh, Vif TR-FRET, B2AR ag, LANA-H2A inh
CCC(=O)N(Cc1cc(=O)[nH]c2ccccc12)c1cccc(C)c1 is listed with ., 3.0, 11.1, ., 8.3%, -0.2, -11.1
COc1cccc(NC(=O)C(C)OC(=O)c2n[nH]c3ccccc23)c1 (centres undefined) is listed with ., -1.5, ., ., ., -0.6, 0.8

Compound activity from PubChem BioAssay.
